Tg IFNy HTS: T. gondii growth inhibition with IFN-gamma, primary screen, cell-based; activity change, negative = inhibition, %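 (about 20 µM by stock and volumes)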; Toxoplasma gondii growth in IFN-gamma-treated host cells; hits give low values; reference of the scale not given here; 69,000 compounds, 3.8% hits;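 active = below -70%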;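 note: host cells are HeLa cells infected with Toxoplasma gondii; parasite growth read as luciferase light; one replicate is shown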
Active calls of the source: *; i = inactive.

CN(C)CCN1CCN(C)C2(CCN(S(=O)(=O)C3CC3)CC2)C1=O
  Tg IFNy HTS: 1
CCc1ncc(C(=O)NCc2cnn3ccccc23)cn1
  Tg IFNy HTS: 151
O=C1COC2(CCN(C(=O)C3CCOCC3)CC2)CN1
  Tg IFNy HTS: 2
Cc1ccc(S(=O)(=O)N2CCC3(CC2)Nc2ccccc2-n2cccc23)cc1
  Tg IFNy HTS: 28
CC(C)C(=O)N1CCCC2(CCCN2C(=O)CCc2ccccc2)C1 (stereo not drawn)
  Tg IFNy HTS: 35
NC(=O)C1(N2CCCCC2)CCN(c2ccc(NC(=O)c3ccccc3F)cc2C(=O)O)CC1
  Tg IFNy HTS: 2
C[C@@H]1CN([C@H](C)CO)C(=O)CCCn2nncc2CO[C@H]1CN(C)C(=O)Nc1ccc(-c2cccs2)cc1
  Tg IFNy HTS: i
Cn1ccnc1CCC1CCCCN1C(=O)NCc1cccc(F)c1 (stereo not drawn)
  Tg IFNy HTS: 5
O=C(c1cccc(F)c1)N1CCc2c([nH]c3ccccc23)C1c1cccnc1 (stereo not drawn)
  Tg IFNy HTS: -96*
Cc1ccc(S(=O)(=O)Nc2nc(C)cc(-n3nc(C)cc3C)n2)cc1
  Tg IFNy HTS: -39
O=S(=O)(CCN1C=CC(C(F)(F)F)=NCC1)c1ccc(Cl)cc1Cl
  Tg IFNy HTS: -28
CC(NC(=O)c1cc(C(F)(F)F)n(C)n1)c1ccncc1 (stereo not drawn)
  Tg IFNy HTS: 29
CCOc1ccc(CC(=O)NCCc2sc(-c3ccc(F)cc3)nc2C)cc1
  Tg IFNy HTS: -93*
c1ccc(CCc2n[nH]c(Cc3ccc(-n4cnnn4)cc3)n2)cc1
  Tg IFNy HTS: 0
Cc1cnc(N)c(C(=O)C2CCN(C(=O)c3cnc(C)nc3C)CC2)c1
  Tg IFNy HTS: -7

CCn1c(C2CCCN(C(=O)c3cc(CC(C)C)no3)C2)n[nH]c1=O (stereo not drawn)
  Tg IFNy HTS: -2
Nc1nc(-c2ccc(Br)s2)cs1
  Tg IFNy HTS: 13
COc1ccc(CNC(=O)COc2nc(C)nc3ccccc23)cc1
  Tg IFNy HTS: 3
CCc1oc(C(N)=O)cc1CN1CCC=C(CN(C)C(C)=O)C1
  Tg IFNy HTS: -4
CC(=O)Nc1ccc(C)cc1S(=O)(=O)N1CCC2(CC1)Nc1cc(F)ccc1-n1cccc12
  Tg IFNy HTS: -8
Cc1cc2cc3c(cc2nc1SCc1nnnn1-c1ccc(Cl)cc1)OCCO3
  Tg IFNy HTS: 18
Cc1ccc2c(c1C)-n1cccc1C1(CCN(C(=O)CCc3ccccc3)CC1)N2
  Tg IFNy HTS: -36
CCOc1cccc(CC(=O)N2CCc3c([nH]c4ccccc34)C2c2cccnc2)c1OCC (stereo not drawn)
  Tg IFNy HTS: 11
CC(C)(C)C1CCc2onc(C(=O)O)c2C1 (stereo not drawn)
  Tg IFNy HTS: 93
CC(=O)N1CCN(CC2=CCN(CC(=O)NC3CC3)CC2)CC1
  Tg IFNy HTS: -3
CCN(CCCNC(=O)CC1Nc2c3ccccc3nc(=S)n2C1=O)c1ccccc1 (stereo not drawn)
  Tg IFNy HTS: 5
O=C(Nc1ccccc1OCCCc1ccccc1)C1CCOC1 (stereo not drawn)
  Tg IFNy HTS: 4
CN1c2cc(F)ccc2C(=O)NC12CCN(C(=O)Nc1ccc3c(c1)OCCO3)CC2
  Tg IFNy HTS: 74
CCOC(=O)c1nn(CCc2ccccc2)c2c1CN(C(=O)c1ccc3cc[nH]c3c1)CC2
  Tg IFNy HTS: -13
CN(Cc1cc(-c2ccncc2)no1)Cc1ccc(Cl)s1
  Tg IFNy HTS: -13

COC(=O)c1sccc1-c1ccc(C(C)=O)o1
  Tg IFNy HTS: -2
Cn1c(=O)cc(Oc2cccnc2)c2cc(NC(=O)c3cccc(F)c3)ccc21
  Tg IFNy HTS: -14
c1ccc(Cc2cn[nH]c2C2CCN(c3cnccn3)CC2)cc1
  Tg IFNy HTS: -14
CS(=O)(=O)N1CCCC2(CC(Nc3nccs3)CO2)C1 (stereo not drawn)
  Tg IFNy HTS: -2
CC(C)[C@@H](CS(=O)(=O)C(C)C)N1C(=O)[C@@](C)(CC(=O)O)C[C@H](c2cccc(Cl)c2)[C@H]1c1ccc(Cl)cc1
  Tg IFNy HTS: -23
COc1ccc(CC(=O)N2CCC3(CC2)CC(OCC(C)C)C3)cc1
  Tg IFNy HTS: 6
CCS(=O)(=O)Nc1ccc2c(c1)C(=O)N(C)[C@H]1CC[C@@H](CC(=O)NCc3ccccc3F)O[C@@H]1CO2
  Tg IFNy HTS: 10
Oc1cccc(CN2CCN(c3nccc(CCC(F)(F)F)n3)CC2)c1
  Tg IFNy HTS: -6
CN(Cc1ccncc1)C1COC2(CCN(c3ncc(F)cn3)CC2)C1 (stereo not drawn)
  Tg IFNy HTS: 77
O=C(Cn1ncc2c(N3CCN(c4ccccn4)CC3)ncnc21)Nc1ccc(F)cc1F
  Tg IFNy HTS: 139
CNC[C@@H]1Oc2ccc(N)cc2CC(=O)N([C@H](C)CO)C[C@H]1C
  Tg IFNy HTS: -11
Cc1ccc(C(=O)Nc2c(C(=O)N3CCN(c4ccccn4)CC3)[nH]c3ccccc23)cc1
  Tg IFNy HTS: -14
CC(C)Nc1ncnc2c1CCN(C(=O)Cc1ccccn1)CC2
  Tg IFNy HTS: 9
C[C@@H]1CN([C@@H](C)CO)C(=O)c2ccccc2-c2ccccc2CO[C@@H]1CN(C)Cc1ccc2c(c1)OCCN2C
  Tg IFNy HTS: 16
Cc1ccccc1-n1cc(CN(C)S(=O)(=O)NCc2ccccc2)cn1
  Tg IFNy HTS: -12

C[C@H]1CN([C@@H](C)CO)S(=O)(=O)c2ccc(-c3ccncc3)cc2O[C@@H]1CN(C)S(C)(=O)=O
  Tg IFNy HTS: 238
OCC1(CCc2ccccc2)CCCNC1 (stereo not drawn)
  Tg IFNy HTS: -4
C=CCNC(=O)NC1(C)CCS(=O)(=O)C1 (stereo not drawn)
  Tg IFNy HTS: 6
COCCn1cnnc1CN(C)c1nc(C(C)(C)C)nc2c1cnn2C
  Tg IFNy HTS: -2
Clc1ccc(OCc2nc(-c3ccc4c(c3)OCCO4)cs2)cc1
  Tg IFNy HTS: 1
CS(=O)(=O)N1CCc2cc(C(=O)N3C4CCC3CC(c3ccc(F)cc3)C4)ccc21 (stereo not drawn)
  Tg IFNy HTS: 11
COc1cc2c(cc1CN1CC3(CCNCC3)CC1C(=O)O)OCO2 (stereo not drawn)
  Tg IFNy HTS: -9
Cc1sc(C(=O)OCC(=O)c2ccccc2)cc1S(=O)(=O)N1CCOCC1
  Tg IFNy HTS: 33
CCN(C[C@@H]1[C@@H](c2ccccc2)[C@@H](CO)N1C(C)=O)C(=O)NC1CCCC1
  Tg IFNy HTS: -21
CNC(=O)CC1C(=O)NCCN1Cc1nc2ccccc2n1C(C)C (stereo not drawn)
  Tg IFNy HTS: 10
CO[C@@H](CN(C)C(=O)C1CCOCC1)[C@@H](C)CN([C@H](C)CO)S(=O)(=O)c1ccccc1
  Tg IFNy HTS: -19
COCCc1noc(CN2C[C@@H]3C4CCC(CC4)[C@@H]3C2)n1
  Tg IFNy HTS: -4
COc1cccc(C(CNC(=O)c2cn(C)c(=O)c3ccccc23)N2CCCC2)c1 (stereo not drawn)
  Tg IFNy HTS: -6
C=CCn1c(SCc2ccccn2)nc2c([nH]c3ccccc32)c1=O
  Tg IFNy HTS: 30
C[C@H](CO)N1C[C@H](C)[C@@H](CN(C)C(=O)Nc2ccccc2)OCCCC[C@H](C)Oc2ccc(NC(=O)Nc3ccccc3)cc2C1=O
  Tg IFNy HTS: 209

CCn1cc2c(n1)C(COC)CN(S(=O)(=O)c1ccc(C)cc1)C2 (stereo not drawn)
  Tg IFNy HTS: 10
COCCN1C2(CCN(C(=O)Cc3cccnc3)C2)c2ccccc2S1(=O)=O (stereo not drawn)
  Tg IFNy HTS: -41
c1csc(-c2nc3ccc4ccccc4c3c3c2CCC3)c1
  Tg IFNy HTS: 121
COc1ccccc1-c1ccccc1[C@@H]1[C@@H](C#N)N(C(=O)C2CCOCC2)[C@H]1CO
  Tg IFNy HTS: -33
CN(C)C(=O)c1ccc2c(c1)N(C)C(CC(=O)NCCc1cscn1)CO2 (stereo not drawn)
  Tg IFNy HTS: 2
COc1ccc(-c2cc(=O)n3[nH]c(SCc4ccccc4Cl)nc3n2)cc1
  Tg IFNy HTS: 46
CCCNC(=O)C[C@@H]1CC[C@@H]2[C@H](COC[C@H](O)CN2C(=O)Nc2ccc(Cl)c(Cl)c2)O1
  Tg IFNy HTS: -22
COc1ccc(NC(=O)N2CC3(C2)CN(C(C)=O)[C@@H](CO)c2[nH]c4cc(OC)ccc4c23)cc1
  Tg IFNy HTS: 84
O=C(C1CCOCC1)N1CC2(C1)[C@H](c1ccccc1)[C@@H](CO)N2C(=O)CC1CC1
  Tg IFNy HTS: 61
O=C(c1cccc(F)c1)N1CCCCN2[C@H](C1)[C@@H](c1ccc(C#CC3(O)CCCC3)cc1)[C@@H]2CO
  Tg IFNy HTS: -31
C[C@@H]1CCCCO[C@@H](CN(C)Cc2ccc(Cl)c(Cl)c2)[C@H](C)CN([C@@H](C)CO)C(=O)c2cc(NS(=O)(=O)c3cccs3)ccc2O1
  Tg IFNy HTS: -44
O=C(CCN1CCCCC1)NCC[C@@H]1CC[C@H](NS(=O)(=O)c2cccc(Cl)c2)[C@@H](CO)O1
  Tg IFNy HTS: 37
COc1ccc(S(=O)(=O)N2CCC3(CC2)Nc2cc(C)ccc2-n2cccc23)cc1
  Tg IFNy HTS: 24
Cc1cnccc1N1CCCN(C(=O)CC2COCCN2)CC1 (stereo not drawn)
  Tg IFNy HTS: -4
NC1(C(=O)O)CCN(Cc2cnc(-c3cccc4ccccc34)nc2)C1 (stereo not drawn)
  Tg IFNy HTS: 3

COc1cccc(CNc2nc(-c3nnc(-c4cccc(C)c4)o3)nc3ccccc23)c1
  Tg IFNy HTS: -92*
Cc1cc(C2CCCN2Cc2ccc(C(=O)Nc3c(C)noc3C)cc2)on1 (stereo not drawn)
  Tg IFNy HTS: -2
COc1ccc(-c2nc(Cc3noc(-c4cccc(OC)c4)n3)c(C)o2)cc1
  Tg IFNy HTS: 80
c1ccc(CN2CCOCC2c2nccc(N3CCCC3)n2)cc1 (stereo not drawn)
  Tg IFNy HTS: 0
O=C(Nc1ccc(F)c(F)c1)c1c(O)c2cccnc2n(-c2ccc(F)cc2)c1=O
  Tg IFNy HTS: -40
CN1CCC2(CCCN(Cc3ccncc3)CC2)C1=O (stereo not drawn)
  Tg IFNy HTS: 104
Cc1cccc(NC(=O)C(CC(C)C)NS(=O)(=O)c2ccc3[nH]c(=O)ccc3c2)c1 (stereo not drawn)
  Tg IFNy HTS: -30
CCn1c(C2CCCN(C(=O)c3cnc4ccccn4c3=O)C2)nn(C)c1=O (stereo not drawn)
  Tg IFNy HTS: 13
COc1ccc(CCNCC(=O)Nc2ccc(C(=O)N3CCCCC3)cc2)cc1
  Tg IFNy HTS: -64
COc1cccc(NC(=O)Nc2ccc3c(c2)C(=O)N(C)C[C@@H](OC)[C@@H](C)CN[C@H](C)CO3)c1
  Tg IFNy HTS: -26
C(=C\CSc1ccccn1)/CSc1ccccn1
  Tg IFNy HTS: 290
COC(=O)c1ccc(OCCCCN2CC(C)OC(C)C2)cc1 (stereo not drawn)
  Tg IFNy HTS: -9
COC(=O)c1cc(C(=O)NCCC(C)C)cc([N+](=O)[O-])c1
  Tg IFNy HTS: -9
COC(=O)c1cc2n(n1)CCCN(C(=O)CCOc1ccccc1)C2
  Tg IFNy HTS: 42
Cc1ccc(C)c(S(=O)(=O)N2CCC3(CC2)NCCN=C3NCc2ccccc2Cl)c1
  Tg IFNy HTS: -53

CCCC(=O)Nc1ccc2c(c1)C(=O)N(C)C[C@@H](OC)[C@H](C)CN(C(=O)c1ccccn1)[C@@H](C)CO2
  Tg IFNy HTS: -40
O=C(Cn1ncc2c(N3CCOCC3)ncnc21)NCc1cccc(C(F)(F)F)c1
  Tg IFNy HTS: -51
CCOC(=O)C1CCN(C(=O)CN(Cc2ccccc2)S(C)(=O)=O)CC1
  Tg IFNy HTS: 16
O=C(Nc1ccccc1)[C@@H]1[C@@H](CO)[C@@H]2Cn3c(ccc(C4=CCCCC4)c3=O)[C@@H]2N1Cc1cocn1
  Tg IFNy HTS: -45
Cc1[nH]c(=O)[nH]c(=O)c1-c1ccc(C(C)N2CCCC2)cc1 (stereo not drawn)
  Tg IFNy HTS: -1
CS(=O)(=O)N1CCCC(Cc2ccc(Cl)nc2)C1 (stereo not drawn)
  Tg IFNy HTS: -6
C=CCC(CC=C)(NC(=O)CCC(=O)OC)c1ccccc1
  Tg IFNy HTS: 2
CCN(CC)CCCNC(=O)C1c2ccccc2Oc2ccccc21
  Tg IFNy HTS: -26
COCC(=O)N1[C@H](CO)[C@@H]2c3ccccc3N(C)C[C@@H]21
  Tg IFNy HTS: -7
Cc1cccc2cc(C#N)c(SCC(=O)N3CCCc4ccccc43)nc12
  Tg IFNy HTS: -38
COc1ccc(NC(=O)c2nnn(Cc3nc(-c4ccccc4OC)oc3C)c2C)cc1Cl
  Tg IFNy HTS: 107
Cc1cc(-c2cnc3cc(C)nn3c2C2CCCN(CC(=O)N(C(C)C)C(C)C)C2)on1 (stereo not drawn)
  Tg IFNy HTS: -32
CC(C)(C)c1cc(C(C)(C)C)n(-c2cnc3ccccc3n2)n1
  Tg IFNy HTS: -3
O=C(COc1cccc2c(=O)[nH]ccc12)c1ccccc1
  Tg IFNy HTS: 2
O=C(CCN1CCCCC1)N[C@@H]1CC[C@H](CCn2cc(-c3cccc(F)c3)nn2)O[C@H]1CO
  Tg IFNy HTS: -37

O=S(=O)(c1cccs1)N1CCOCC1
  Tg IFNy HTS: 3
COc1ccc(CN2C(=O)N(C)C3(CCN(Cc4ccc(-c5ccccc5Cl)o4)CC3)C2=O)cc1
  Tg IFNy HTS: -48
CCC(C)C1N=C2c3ccccc3N=C(SCc3ccc(Cl)cc3)N2C1=O (stereo not drawn)
  Tg IFNy HTS: 4
Cc1ccnc(CC(C)N(C)C(=O)c2cc(-c3cnn(C)c3)nc3c(C)cccc23)c1 (stereo not drawn)
  Tg IFNy HTS: -3
COCCNC(=O)C[C@H]1CC[C@@H]2[C@H](COC[C@H](O)CN2C(=O)c2cc(Cl)cc(Cl)c2)O1
  Tg IFNy HTS: -48
CN1CCN(C(=O)c2ccc3[nH]c4c(c3c2)CSCC4)CC1C(=O)O (stereo not drawn)
  Tg IFNy HTS: -13

This is a subset, so the mix of outcomes need not match the whole.
